GALR2 agonist – GALR2 receptor agonists, primary screen, cell-based; Galanin receptor type 2 (Homo sapiens), O43603; GALR2-expressing cells, agonist activation read-out; activation, %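 (tested at 5 µM)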; 140,000 compounds, 0.48% hits; AID 803, 2007;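 active = above mean plus 3 SD of all compounds, about 5% in these data, not always enough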;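 also: 0% = vehicle buffer wells and 100% = reference agonist at full effect; tested in CHO reporter cells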
Target sequence (O43603 whole entry, looked up): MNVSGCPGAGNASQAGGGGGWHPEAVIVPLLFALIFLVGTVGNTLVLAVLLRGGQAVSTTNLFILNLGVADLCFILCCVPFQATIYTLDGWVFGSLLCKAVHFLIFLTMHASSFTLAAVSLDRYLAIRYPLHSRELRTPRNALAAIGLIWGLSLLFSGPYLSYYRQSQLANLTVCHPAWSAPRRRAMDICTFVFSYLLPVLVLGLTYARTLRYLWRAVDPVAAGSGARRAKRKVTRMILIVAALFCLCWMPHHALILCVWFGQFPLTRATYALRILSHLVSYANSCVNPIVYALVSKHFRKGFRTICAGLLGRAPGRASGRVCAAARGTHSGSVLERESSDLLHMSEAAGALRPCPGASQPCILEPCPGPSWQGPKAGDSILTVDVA
RGS16-Gao HTS – modulators of RGS16 binding to Galphao, primary screen, biochemical, human proteins, multiplexed bead flow cytometry; Regulator of G-protein signaling 16 (Homo sapiens) + Guanine nucleotide-binding protein …; bead-based flow cytometry RGS16-Galphao binding, fluorescence; actives lie on both sides; binding response (% of control), % at 10 µM; 220,000 compounds, 0.38% hits; AID 1441, 2008;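 active = below 25% or above 175%, edge rows of some plates excepted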;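 also: Galphao activated by GDP with aluminum fluoride before binding; 100% = wells without compound and 0% = beads without RGS; some results beyond the cut were filed as inactive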
Target sequence (O15492 whole entry, looked up): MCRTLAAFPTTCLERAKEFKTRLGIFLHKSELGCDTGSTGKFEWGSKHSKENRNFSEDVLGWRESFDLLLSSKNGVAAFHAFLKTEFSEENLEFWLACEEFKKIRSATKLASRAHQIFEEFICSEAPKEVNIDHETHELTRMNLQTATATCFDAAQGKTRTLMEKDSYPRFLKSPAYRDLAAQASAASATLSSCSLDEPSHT
Target sequence (P09471 whole entry, looked up): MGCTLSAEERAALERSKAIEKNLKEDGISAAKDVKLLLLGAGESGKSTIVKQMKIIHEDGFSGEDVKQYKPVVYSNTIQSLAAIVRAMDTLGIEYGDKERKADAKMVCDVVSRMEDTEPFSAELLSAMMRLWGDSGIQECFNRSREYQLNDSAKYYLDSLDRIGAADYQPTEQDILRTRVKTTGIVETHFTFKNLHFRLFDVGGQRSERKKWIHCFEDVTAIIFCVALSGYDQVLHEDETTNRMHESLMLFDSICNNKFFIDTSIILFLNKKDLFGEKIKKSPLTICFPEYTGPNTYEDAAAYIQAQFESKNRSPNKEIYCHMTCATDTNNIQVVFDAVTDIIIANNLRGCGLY
PKD1 inh – inhibitors of human PKD1 kinase, biochemical, fluorescence polarization; PKD1 kinase fluorescence polarization assay; AID 797, 2007; 200,000 compounds, 0.056% hits; inhibition, %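 (about 10 µM by stock and volumes)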;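 active = inhibition of 50% or more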;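 also: controls were vehicle for no effect and a reference inhibitor for full effect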
HSV replic up – enhancers of HSV replication in host cells, fold increase, host cell viability; HSV replication augmentation in cells; maximum fold increase; 220,000 compounds, 0.005% hits; AID 1956, 2009;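 active = peak rise of 1.5-fold or more in the series; inconclusive = self-fluorescent or not available for retest; tested in PC3 cells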;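 also: first round at 10 µM; read as green reporter fluorescence; hits show the peak of a series up to 25 µM; 1 = signal of infected wells without compound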
Insulin prom inh – inhibitors of insulin promoter-driven GFP, primary screen, imaging, TRM-6 cells (human fetal islet line), eGFP reporter, cell count; reporter expression induced with tamoxifen; inhibition, % at 2 µM; 130,000 compounds, 0.9% hits; AID 1273, 2008;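 active = inhibition above the mean plus 3 SD, with well images judged a real hit on visual review, cut at about 60% in these data, passing the limit was not always enough; inconclusive = inhibition over the cutoff but images rejected on review; inactive = inhibition not above the cutoff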
Insulin prom inh cell count – second read-out of Insulin prom inh, no call of its own (marks repeat the call); normalized cell count, %; measured here: cell count, toxicity; reference of the scale not given here;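 cells exposed to compound for 48 h; stained nuclei by imaging scaled within each plate; lower means fewer cells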
HSV replic up primary fold – second read-out of HSV replic up, no call of its own (marks repeat the call); fold increase; compound at 10 µM; measured here: primary screen fold increase 10 uM; tested in PC3 cells;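 GFP signal in the first replicate; 1 = infected wells without compound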
Active calls of the source: *; i = inactive; ? = inconclusive; . = not tested or not shown. The order is random, and some 1.3% of all compounds hit somewhere here.

Start of the data: the first 4 compounds as a preview:
Each structure is followed by: GALR2 agonist, Insulin prom inh, PKD1 inh, HSV replic up primary fold, Insulin prom inh cell count, RGS16-Gao HTS, HSV replic up
CC1CCc2nc(NC(=O)c3ccc(S(=O)(=O)N4CCCc5ccccc54)cc3)sc2C1 (configuration not stated)
 : -2.0, 37, -5, 0.95, 100, 101, i
CCN=c1scc(C)n1/N=C/c1cc(Br)c(O)c(OC)c1
 : ., -89, -7, 0.76, 116, 99, i
CC(C)Cn1c(-c2ccccc2F)n[nH]c1=S
 : -2.7, 53, -2, 1, 134, 102, i
Cc1cccc(NC(=O)CCc2c(C)nc3ncnn3c2C)n1
 : -0.8, 25, 3, 0.83, 115, 150, i

The list itself, repeating the preview:
Each structure is followed by: GALR2 agonist, Insulin prom inh, PKD1 inh, HSV replic up primary fold, Insulin prom inh cell count, RGS16-Gao HTS, HSV replic up
CC1CCc2nc(NC(=O)c3ccc(S(=O)(=O)N4CCCc5ccccc54)cc3)sc2C1 (configuration not stated)
 : -2.0, 37, -5, 0.95, 100, 101, i
CCN=c1scc(C)n1/N=C/c1cc(Br)c(O)c(OC)c1
 : ., -89, -7, 0.76, 116, 99, i
CC(C)Cn1c(-c2ccccc2F)n[nH]c1=S
 : -2.7, 53, -2, 1, 134, 102, i
Cc1cccc(NC(=O)CCc2c(C)nc3ncnn3c2C)n1
 : -0.8, 25, 3, 0.83, 115, 150, i
CCc1nc2sc3c(c2c(=O)n1N)CC(C)(C)OC3
 : -1.2, 7, -7, 1, 94, 104, i
Cc1ccc(NC(=O)C(=O)NCc2ccccn2)cc1
 : ., 0, -14, 0.94, 111, 103, i
Cc1cc(=O)[nH]c(SCC(=O)NC2CCCc3ccccc32)n1 (configuration not stated)
 : ., ., ., 0.94, ., 115, i
O=[N+]([O-])c1cc(C(F)(F)F)cc([N+](=O)[O-])c1Sc1n[nH]c(C(F)(F)F)n1
 : ., ., ., 0.94, ., 97, i
CCOC(=O)c1cnc(-n2nc(C)cc2C)nc1NNc1ncc(-c2ccccc2)cn1
 : ., ., ., 0.88, ., 99, i
COc1ccc(C(=O)/C=C/C(=O)N(Cc2ccc3c(c2)OCO3)C(C(=O)NC2CCCCC2)c2ccncc2)c(O)c1 (configuration not stated)
 : -0.5, -23, -6, ., 100, 104, .
O=C(COC(=O)c1cc(Cl)ccc1Cl)NCCN1C(=O)CSC1=O
 : 12*, -11, 1, 0.9, 90, 98, i
CCOC(=O)/C(C#N)=C\c1ccco1
 : -2.1, ., 1, 1.1, ., 113, i
O[C@@H]1COC(Nc2ccc(N=Nc3ccccc3)cc2)C[C@@H]1O (some centres not stated)
 : ., ., ., 0.85, ., 96, i
Cc1ccc2c(c1C)NC(=O)C21N2CCCC2C(C(=O)c2ccc3ccccc3c2)C12C(=O)Nc1ccccc12 (configuration not stated)
 : ., ., ., 0.69, ., 96, i
CCOC(=O)c1sc(C)c2c(=O)n(CC(=O)c3ccc(Br)cc3)nnc12
 : -2.2, -24, -8, 1.1, 104, 102, i
O=C(c1ccc2c(c1)OCO2)C1CCCN(Cc2ccc3cccc(F)c3n2)C1 (configuration not stated)
 : ., ., 2, 1.1, ., 105, i
Cc1ccc(NC(=O)CSc2nnc(Cc3cccn3C)n2-c2ccc(F)cc2)cc1
 : -1.3, ., -15, 0.89, ., 125, i
O=C1C2C3C=CC(C3)C2C(=O)N1c1nccs1 (configuration not stated)
 : -3.1, -148, -5, 0.96, 85, 100, i
CCOC(=O)C1CCCCN1Cc1cn[nH]c1-c1ccc(F)cc1F (configuration not stated)
 : ., ., 1, 0.96, ., 98, i
CCCCOC(=O)c1ccc(NC(=O)c2cnc3n(c2=O)CCS3)cc1
 : -2.6, -12, -2, 1.1, 169, 106, i
CCN(CC)c1ccc(NC(=O)CN2C(=O)CC(C)(C)S(=O)(=O)c3ccccc32)c(C)c1
 : -1.9, ., -2, 0.84, ., 99, i
COc1cccc(-c2cc(C(=O)N3N=C(C)CC3(O)C(F)F)c3ccccc3n2)c1 (configuration not stated)
 : ., -21, -7, 0.9, 54, 102, i
CN(C)S(=O)(=O)c1ccc(NC(=O)C2CC(=O)N(Cc3ccccc3)C2)cc1 (configuration not stated)
 : ., 0, -6, 0.93, 129, 100, i
CC(C)(C)C(=O)CSc1nc2c(c(-c3cccs3)c1C#N)CCC2
 : 3.2, 20, -8, 0.99, 36, 83, i
CN1CCN(c2ccc(Cl)cc2NC(=O)c2ccc([N+](=O)[O-])cc2)CC1
 : ., ., ., 0.89, ., 106, i
COc1ccccc1COCC(O)CN(Cc1ccco1)Cc1ccccc1O (configuration not stated)
 : -0.7, -3, -1, 1.1, 87, 104, i
Cc1ccc(CN2CCN(Cc3ccc(OCCO)cc3)CC2CCO)o1 (configuration not stated)
 : ., ., 3, 1.1, ., 106, i
COC(=O)c1c(C)nc2ccccc2c1C(=O)O
 : 0.1, 55, -18, ., 65, 100, .
OCCn1c(Cl)nc2ccccc21
 : -1.0, -425, 0, 0.99, 44, 89, i
CCOC(=O)c1ccc2[nH]c3c(c2c1)CCCC3O (configuration not stated)
 : ., 29, 5, 0.95, 131, 102, i
O=C(COc1cccc2cccnc12)NCC(F)(F)F
 : -0.3, -60, -3, 1, 66, 101, i
O=C(Cn1[nH]c(=O)c2ccccc2c1=O)N1CC=C(c2ccccc2)CC1
 : -1.2, 3, -2, 0.9, 50, 120, i
Cc1cccc(N(C(=O)CCC(=O)Nc2ccccn2)C(C(=O)NC(C)C)c2ccc(O)cc2)c1 (configuration not stated)
 : -1.6, 35, -11, 0.84, 79, 105, i
Cc1nn(CC#N)c(=O)n1N(C)c1ncc(C(F)(F)F)cc1Cl
 : ., ., 0, 1, ., 104, i
Cc1nc(Nc2ccc3c(c2)OCCO3)c2c(C)c(C)sc2n1
 : ., 14, -6, 0.83, 195, 113, i
C/C(N)=C(/C#N)C(=O)COC(=O)c1cc(S(=O)(=O)N2CCCCC2)ccc1C
 : 2.8, 28, -7, ., 62, 100, .
CCOC(=O)CC(=O)Nc1c(C)cc(C)cc1C
 : 0.4, 30, -5, 1, 131, 104, i
Cc1cccc2cc(CN(CC3CCCO3)C(=O)NC3CCCCC3)c(=O)[nH]c12 (configuration not stated)
 : -2.2, 31, 0, 0.97, 101, 103, i
O=C1NCCCC2c3cc(O)c4ccccc4c3OC12N1CCCCC1 (configuration not stated)
 : -2.7, 45, -4, ., 180, 89, .
Cc1ccc2nc(N3CCCCC3)c(C=O)c(=O)n2c1
 : ., -23, -1, 0.96, 56, 173, i
O=C(Nc1nnc(C2CCCO2)s1)c1cccs1 (configuration not stated)
 : -3.6, 31, -1, 0.98, 107, 102, i
CCN(CC)c1ccc(C(=O)Nc2ccccc2)cc1[N+](=O)[O-]
 : ., -12, 0, 1, 167, 103, i
O=C(Cn1nnc(-c2ccccc2NC(=O)c2ccccc2F)n1)NCc1ccco1
 : 1.0, 50, 10, 0.89, 110, 100, i
CCC1CC(CSc2ncn[nH]2)OC1=O (configuration not stated)
 : -1.8, 61, -3, 1.1, 140, 96, i
COc1ccc(CCN2C(=O)C3C4CCC(C4=C(C)C)C3C2=O)cc1OC (configuration not stated)
 : -0.9, ., -3, 0.95, ., 99, i
C=CCOc1nc2c(c(=O)n(C)c(=O)n2C)n1C
 : 0.8, -33, 0, 0.75, 89, 92, i
O=[N+]([O-])c1cccc(C2NCC(c3ccccc3Cl)c3c2[nH]c2ccccc32)c1 (configuration not stated)
 : ., -5, 13, 0.9, 136, 108, i
COc1cc([N+](=O)[O-])ccc1NC(=S)N1CCN(c2ccccn2)CC1
 : ., 20, -4, 0.63, 133, 95, i
COc1ccc(-n2c(SCC(N)=O)nc3sc4c(c3c2=O)CCN(C)C4)cc1
 : -0.3, ., 4, 1, ., 86, i
Clc1cccc(Cl)c1CNC1CCCC1
 : 0.4, 31, 4, 1.1, 57, 93, i

Other records
Each structure is followed by: GALR2 agonist, Insulin prom inh, PKD1 inh, HSV replic up primary fold, Insulin prom inh cell count, RGS16-Gao HTS, HSV replic up
COc1ccc(OC)c(NC(=O)Cn2cc(C#N)c3cc(Br)ccc32)c1
 : -0.3, 45, -2, 0.94, 113, 105, i
CCN(CC)c1ccc(-n2cc3c(=O)n(C)c(=O)n(C)c3c2)cc1
 : -1.6, ., 3, 0.82, ., 96, i
Cc1ccccc1NC(=O)C1Cc2ccccc2C(=O)O1 (configuration not stated)
 : -2.7, -7, -13, 0.98, 116, 95, i
S=C(NCc1ccccc1)N1CCN(c2ccccc2)CC1
 : ., ., -3, 0.96, ., 94, i
CCN(C(=O)COC(=O)c1ccc(Cl)nc1)C1CCS(=O)(=O)C1 (configuration not stated)
 : ., 18, 0, 1, 119, 100, i
CN1C(=O)c2ccc(S(=O)(=O)c3ccc(C(=O)O)cc3)cc2C1=O
 : -2.0, ., -16, 1.1, ., 98, i
CC(C)CC(NC(=O)c1ccccc1)C(=O)OCC(=O)Nc1ccc(S(N)(=O)=O)cc1 (configuration not stated)
 : ., ., 0, 0.84, ., 69, i
CCc1c(C#N)sc(C(N)=O)c1CC
 : ., ., ., 1.1, ., 106, i
CC(=O)Nc1ccc(S(=O)(=O)NCCN2CCOCC2)cc1
 : -2.4, 0, -11, 0.93, 77, 99, i
O=C(Nc1ccc(Cl)c(Cl)c1)O/N=C/c1ccncc1
 : -0.5, 0, -10, 0.95, 133, 102, i
Cc1nc(SCC(=O)NCCc2ccccc2)n[nH]1
 : -1.7, -7, -16, ., 152, 106, .
COc1ccc(NC(=O)CCC(=O)OCc2ccc(Br)cc2)cc1
 : -0.3, -13, 3, 0.95, 52, 112, i
O=C(/C=C/c1ccc(Br)cc1)NC(=S)N1CCOCC1
 : ., ., 1, 0.86, ., 108, i
CCc1ccccc1NC(=O)C1C(c2ccccc2)C1(Cl)Cl (configuration not stated)
 : -3.2, 36, -8, 1, 92, 102, i
CC(C)=CCC/C(C)=C/CC/C(C)=N/O
 : -0.6, ., 18, 0.69, ., 49, i
O=C(Cc1ccccc1[N+](=O)[O-])NC1CC1
 : ., -11, -6, 0.95, 101, 101, i
COc1cc(/C=C(\NC(C)=O)C(=O)NC(C)(C)C)ccc1OC(C)=O
 : -1.1, -19, -9, 0.97, 78, 110, i
COc1ccc(N(C)C(=O)Cc2c(C(=O)O)[nH]c3ccccc23)c(OC)c1
 : ., -18, -5, 0.85, 100, 139, i
COc1ccc(/C=N/Nc2nc(-c3cccnc3)nc3ccccc23)cc1OC
 : ., ., ., 0.89, ., 97, i
CCC(=O)Nc1nc2ccccc2n1Cc1ccccc1Cl
 : ., ., ., 0.91, ., 98, i
COc1ccc2c(c1OC)C(=O)N1C(C(=O)O)Cc3c([nH]c4ccccc34)C21 (configuration not stated)
 : -1.2, 9, 2, 0.94, 131, 101, i
Cc1ccc(C2=NN=C(NC(=O)C(F)(F)F)SC2)cc1
 : ., ., 3, 1.1, ., 102, i
Cc1ccc2c(SCC(=O)NCc3ccco3)nc(-c3ccc(F)cc3)nc2c1
 : 1.3, ., -1, 0.97, ., 103, i
CCC1CN(C(=O)Nc2cccc(C)c2)c2cc(C)ccc2O1 (configuration not stated)
 : ., 22, -9, 1, 89, 102, i
Cc1[nH]c(=O)[nH]c(=O)c1S(=O)(=O)N1c2ccc(F)cc2CCC1C (configuration not stated)
 : -2.2, 43, 5, 0.79, 115, 90, i
O=C(O)c1cccc(S(=O)(=O)Nc2ccc3c(c2)OCO3)c1
 : -0.9, 39, -6, 0.78, 136, 105, i
CCCC(CCC(=O)Nc1nccs1)C(=O)O (configuration not stated)
 : ., 28, -2, 0.89, 107, 100, i
CCOC(=O)COc1cc(Br)c(C2NC(=O)NC(C)=C2C(C)=O)cc1OCC (configuration not stated)
 : -0.1, 10, -2, 0.97, 118, 104, i
Cc1ccc(C)c(NC(=O)c2cc3c([nH]c4ccccc43)c(C)n2)c1
 : -3.4, ., 12, 0.8, ., 102, i
CCOc1cnc(-c2c(-c3c(F)cccc3Cl)noc2C)o1
 : ., ., 0, 0.87, ., 98, i
O=c1cc(CO)oc(C(Nc2ccccn2)c2ccsc2)c1O (configuration not stated)
 : -2.2, -5, -2, ., 125, 76, ?
O=S1(=O)CC=C(CSC(=S)NC2CCS(=O)(=O)C2)C1 (configuration not stated)
 : ., ., 6, 1.1, ., 105, i
Cc1cccc(N2CCN(C(=O)C3CCN(c4nnc(-n5cccc5)s4)CC3)CC2C)c1 (configuration not stated)
 : -1.1, ., -12, 1.2, ., 87, i
Cc1ccc(S(=O)(=O)N2CCCC(C(=O)NCc3cccnc3)C2)cc1Cl (configuration not stated)
 : 1.0, ., -2, 1.1, ., 97, i
